Assay outcomes from PubChem BioAssay.
Mtb H37Rv: Confirmatory growth inhibition assay against Mycobacterium tuberculosis H37Rv, potency (AID 1949); most inactive calls were filed without a number and no value below 0 was filed; one-dose inhibition, % at 10 µg/mL; IC50 in µg/mL for titrated hits; 100,000 compounds, 1.6% hits;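 active = confirmed in a dose series; inconclusive = about 50% or more but not retested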;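 note: bacteria grown 7 days with compound before Alamar blue readout; 0% = untreated bacteria and 100% = reference antibiotic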
* hit, by the source's call; i = inactive; u = inconclusive. Only part of the results is shown; count on the stated rates, not on these rows.

SMILES	Mtb H37Rv
CCC(=O)c1c(O)n(C)c(=O)n(C)c1=O	3%
COc1ccc2cc(Br)ccc2c1CC(=O)O	i
Cc1nc(N2CCC(C)CC2)nc(NCCO)c1[N+](=O)[O-]	6%
CCCCNCCCOc1ccc(F)cc1	i
Cc1cc(Br)ccc1NC(=O)CSc1nnc(N)s1	4%
CCS(=O)(=O)N1CCc2ccccc2C1	i
Cc1cc(C(=O)N2CCC3(CC2)OCCO3)cs1	i
CCCOc1ccc(C(=O)NCCc2ccccc2)cc1	8%
CC(C)c1ccc(OCCCCN2CCNCC2)cc1	i
COc1cc(C)c(CNCCc2ccc(OC)c(OC)c2)cc1C	i
CCOCCCNCc1ccccc1OCc1ccccc1	i
CCc1ccc(C2=NN(S(C)(=O)=O)C(c3cccs3)C2)cc1 (centres undefined)	i
Cc1ccc(-n2nnnc2SCC(=O)N2CCN(c3ccc(F)cc3)CC2)cc1C	24%
Cc1cc2nc3c(nc2cc1C)C1(C(=O)O)CCC3(C)C1(C)C (centres undefined)	i
CC(C)COc1ccc(N2CC(C(=O)Nc3ccc(Cl)cc3Cl)CC2=O)cc1 (centres undefined)	i
COc1ccc([N+](=O)[O-])cc1/C=C/c1ccc2cccc(OC)c2n1	3%
Cc1cc(OCC(=O)N2CCN(c3ccccn3)CC2)cc(C)c1Br	i
O=C(c1ccccc1)N1CCN(c2ccc(NCc3ccc(Br)cc3)cc2)CC1	i
COCCCn1c(=NC(=O)c2ccccc2Br)c(C#N)cc2c(=O)n3ccccc3nc21	i
Cc1cc(C)cc(NC(=O)CSc2nnc(-c3ccc(Cl)cc3)n2CC(C)C)c1	i
O=C(CN(C1CCCCC1)S(=O)(=O)c1ccc(Br)cc1)NC1CCCC1	1%
COc1cc(C2NC(=O)NC(C)=C2C(=O)Nc2ccccc2)cc(I)c1O (centres undefined)	2%
COc1ccc(-c2cc(C(F)(F)F)n3nc(C)cc3n2)cc1	0%
COc1cc(C=O)cc(OC)c1OCc1ccc(I)cc1	i
Cc1ccc(CN2C(=O)C(O)(CC(=O)c3ccc4c(c3)OCCO4)c3ccccc32)cc1 (centres undefined)	4%
COC(=O)c1ccc(NC(=O)COc2ccc(Br)cc2)cc1	5%
CC1CCN(C(=O)c2cc3cc([N+](=O)[O-])ccc3oc2=O)CC1	i
Cc1ccc(C)n1CC(=O)Nc1cccc(C(F)(F)F)c1	1%
CCCCC(=O)NC(=S)Nc1ccc(S(=O)(=O)N2CCOCC2)cc1	i
Cc1ccc(S(=O)(=O)NC(=O)COc2ccc([N+](=O)[O-])cc2)cc1	i
Cc1cccc(C(=O)Nc2ccccc2Cl)c1[N+](=O)[O-]	i
N#Cc1c(N)sc2c1CCN(C(=O)OCc1ccccc1)C2	29%
CC1CN(C(=O)c2ccncc2)C(C)CN1C(=O)c1ccncc1 (centres undefined)	i
CN(CC(=O)Nc1ccc(Cl)c(C(F)(F)F)c1)S(=O)(=O)c1cc(Cl)ccc1Cl	i
O=C(NCc1ccc(-c2nc3ccccc3o2)cc1)c1ccco1	8%
Cc1nn(C)cc1CN(C)C(=O)c1sc2cccc(Cl)c2c1Cl	i
O=S(=O)(Nc1ncccn1)c1ccc(NC(=S)N2CCN(S(=O)(=O)c3ccc(Cl)cc3)CC2)cc1	i
CC(C)(C)c1ccc(-c2n[nH]c(=S)n2-c2ccc(F)c(Cl)c2)cc1	11%
CC(C)(C)c1cc(C(=O)O)c(CSc2ccccc2C(=O)O)o1	i
N#CC1=C(N)Oc2nc[nH]c(=O)c2C1c1ccccc1Cl (centres undefined)	1%
Nn1c(SCC(=O)NC23CC4CC(CC(C4)C2)C3)nnc1C(F)(F)F	i
Cc1ccccc1Cn1nc(C)c(NC(=O)c2oc3ccccc3c2C)c1C	6%
COc1ccc(CC(=O)NCCN2CCCC2)cc1	i
O=C(Nc1c(F)cc(F)cc1Br)c1ccncc1	i
COC(=O)C(C)NC(=O)C1CCCN1S(=O)(=O)c1cc(C)c(Cl)cc1C (centres undefined)	i
CCc1ccc(OCCNC(=O)c2ccc(S(=O)(=O)N(C)C)cc2)cc1	i
O=S(=O)(NNC(=S)NCc1ccco1)c1cc(Cl)ccc1Cl	i
O=C(NC12CC3CC(CC(C3)C1)C2)C1CCCN1S(=O)(=O)c1ccccc1 (centres undefined)	i
COc1ccc(C(=O)NCc2ccco2)cc1I	i
CCN(CC)S(=O)(=O)c1cccc(-c2nnc(-c3ccc(C)cc3)o2)c1	i
COc1cc(CNCCCO)cc(Cl)c1OCc1ccc(Cl)cc1Cl	6.3µg/mL*
COc1ccc(NC(=O)c2nc3nc(C)cc(C(F)F)n3n2)cc1Cl	i
CC(O)CC(=O)NNC(=O)Nc1ccccc1C(F)(F)F (centres undefined)	i
Cc1cc(C)nc(NC2=NCC(=O)N2c2ccc(-c3ccccc3)cc2)n1	u
CCC1CCCCN1C(=S)NC(=O)c1ccc(F)cc1 (centres undefined)	0.73µg/mL*
COc1cccc(OC)c1C(=O)NC(=S)Nc1cccc(-c2nc3ccccc3s2)c1C	i
O=C(Nc1ccc(F)cc1)c1cn(-c2ccccc2)nc1-c1cccc([N+](=O)[O-])c1	i
Cc1ccc(N(CC(=O)Nc2ccc(CSc3ccccc3)cc2)S(C)(=O)=O)cc1Cl	i
CCc1ccc(C(=O)NC(=S)Nc2cc(C)ccc2O)cc1	u
CCOC(=O)c1ccc(NC(=O)C(C)N2C(=O)c3ccccc3C2=O)cc1 (centres undefined)	i

Next section:
SMILES	Mtb H37Rv
O=C(Nc1nccs1)c1cccc(NC(=O)C2CCCCC2C(=O)O)c1 (centres undefined)	i
CC(=O)c1cccc(OCCCN2CCCCC2)c1	i
S=C(NCCc1ccccc1)NCCN1CCCCC1	i
COc1ccccc1NC(=O)c1ccc(-c2cc3ccccc3oc2=O)cc1	i
N=C(N=C(N)N)N1CCCc2ccccc21	i
CC(=O)c1ccc(NC(=O)c2ccccc2SCc2ccccc2)cc1	5%
COc1ccc(CNC(=O)CSc2nc(-c3ccccc3)cc(-c3cccs3)c2C#N)cc1	i
CCC(NC(=O)c1ccccc1I)c1ccccc1 (centres undefined)	i
Cc1cc(S(=O)(=O)N2CCN(c3ccc(C)c(Cl)c3)CC2)ccc1F	i
CCOc1ccccc1NC(=O)CN(c1ccccc1)S(=O)(=O)c1ccc(Cl)cc1	3%
O=C(Nc1ccc(-c2cnc(-c3ccc(NC(=O)C(F)(F)F)cc3)nc2)cc1)C(F)(F)F	1%
COc1cccc(NC(=O)c2csc3c2CCCC3)c1	i
CC1CCc2c(sc(NC(=O)c3ccncc3)c2C#N)C1 (centres undefined)	i
CCOc1ccccc1C(=O)Nc1ccccc1C(N)=O	i
Nc1cc(=O)[nH]c(SCC(=O)Nc2ccc(Cl)cn2)n1	i
O=C(Nc1ccccc1C(=O)Nc1ccc(Cl)cc1Cl)c1ccco1	i
N#Cc1ccc(NC(=O)C(Sc2ccccc2)c2ccccc2)cc1 (centres undefined)	4%
COc1cc([N+](=O)[O-])ccc1NC(=S)Nc1cc2oc3ccccc3c2cc1OC	46%
CC(=O)Nc1ccc(NC(=O)c2ccc(CSc3ccc(Cl)cc3)cc2)cc1	i
O=C1CN(c2nc(-c3ccc(Cl)cc3)cs2)CCN1	i

Two entries picked at random from those above:
SMILES	Mtb H37Rv
CCOc1ccccc1C(=O)Nc1ccccc1C(N)=O	i
COc1ccc(CNC(=O)CSc2nc(-c3ccccc3)cc(-c3cccs3)c2C#N)cc1	i

(next part)
SMILES	Mtb H37Rv
Cc1ccc2[nH]c(=O)c(CCC(=O)O)c(C)c2c1	i
O=C(Nc1nnc(Cc2ccccc2)s1)c1cccc(F)c1	i
Cc1ccc2c(c1)sc1nc(=O)ccn12	i
Cc1cc(I)ccc1NC(=O)c1ccc(Cl)c(S(=O)(=O)N2CCOCC2)c1	i
COc1ccccc1C(=O)Nc1ccc(S(=O)(=O)NC2CCCCC2)cc1	i
O=c1c2ccccc2nc(CSc2ncnc3ccccc23)n1-c1ccc(Cl)c(Cl)c1	i
Cc1cccc(C(=O)Nc2ccc(F)cc2F)c1[N+](=O)[O-]	i
COCCCNC(=O)c1c(NC(=O)COc2ccccc2F)sc2c1CCCC2	5%
Cc1cc(C)c2c(=O)[nH]n(C3CC(C)N(C)CC3C)c2n1 (centres undefined)	5%
CCC(=O)N1C(=O)C2(Nc3ccccc3N2)c2ccccc21	3%
CCCCC(=O)Nc1cccc(NC(=O)c2cc(I)ccc2Cl)c1	i
c1csc(-c2csc3ncnc(NCCCN4CCOCC4)c23)c1	i
O=C(Nc1ccc(F)cc1)N1CCN(c2ccccc2F)CC1	i
O=C1C2C3c4ccccc4C(c4ccccc43)C2C(=O)N1c1nnc(-c2cccc([N+](=O)[O-])c2)s1 (centres undefined)	i
CN(c1cccc2cccnc12)S(=O)(=O)c1ccccc1	i
Cc1cc(NC(=S)Nc2ccccc2C)n[nH]1	i
CC(=O)Nc1cccc(OCc2ccc(F)cc2)c1	i
Cc1ccccc1C(=O)Nc1c(C(=O)N2CCC(C)CC2)cnn1-c1ccccc1	i
CC(=O)Oc1cccc(C(=O)Nc2ccc(NC(=O)c3ccco3)cc2)c1	6%
NS(=O)(=O)c1ccc(NC(=O)c2ccc(-c3ccccc3Cl)o2)cc1	i

Quoted from the entries so far, 18 compounds:
SMILES	Mtb H37Rv
O=C1CN(c2nc(-c3ccc(Cl)cc3)cs2)CCN1	i
Cc1ccc2[nH]c(=O)c(CCC(=O)O)c(C)c2c1	i
O=C(Nc1nnc(Cc2ccccc2)s1)c1cccc(F)c1	i
Cc1ccc2c(c1)sc1nc(=O)ccn12	i
Cc1cc(I)ccc1NC(=O)c1ccc(Cl)c(S(=O)(=O)N2CCOCC2)c1	i
COc1ccccc1C(=O)Nc1ccc(S(=O)(=O)NC2CCCCC2)cc1	i
O=c1c2ccccc2nc(CSc2ncnc3ccccc23)n1-c1ccc(Cl)c(Cl)c1	i
Cc1cccc(C(=O)Nc2ccc(F)cc2F)c1[N+](=O)[O-]	i
COCCCNC(=O)c1c(NC(=O)COc2ccccc2F)sc2c1CCCC2	5%
Cc1cc(C)c2c(=O)[nH]n(C3CC(C)N(C)CC3C)c2n1 (centres undefined)	5%
CCC(=O)N1C(=O)C2(Nc3ccccc3N2)c2ccccc21	3%
CCCCC(=O)Nc1cccc(NC(=O)c2cc(I)ccc2Cl)c1	i
c1csc(-c2csc3ncnc(NCCCN4CCOCC4)c23)c1	i
O=C(Nc1ccc(F)cc1)N1CCN(c2ccccc2F)CC1	i
O=C1C2C3c4ccccc4C(c4ccccc43)C2C(=O)N1c1nnc(-c2cccc([N+](=O)[O-])c2)s1 (centres undefined)	i
CN(c1cccc2cccnc12)S(=O)(=O)c1ccccc1	i
Cc1cc(NC(=S)Nc2ccccc2C)n[nH]1	i
CC(=O)Nc1cccc(OCc2ccc(F)cc2)c1	i

Next part
SMILES	Mtb H37Rv
Fc1ccc(-c2nc(Cc3ccc(Cl)cc3)no2)cc1	i
CCOC(=O)CNC(=S)N1CCN(c2ccc(C(=O)c3ccncc3)cc2)CC1	i
Cc1ccc(N2C(S)=C(C#N)C(=O)NC23CCCCC3)cc1	i
Cc1ccc(C(=O)N/C(=C\c2cn(-c3ccccc3)nc2-c2ccc(F)cc2)C(=O)NCc2cccnc2)cc1	i
Cc1csc(NC(=O)CSc2nnc(C)s2)n1	i
O=[N+]([O-])c1ccc(COc2c(Cl)cc(CO)cc2Br)cc1	4%
COc1ccc(C)cc1NC(=O)CN(c1ccc(Cl)cc1C)S(C)(=O)=O	i
Cc1ccc(C(=O)Nc2cc(-c3nn(C)c(=O)c4ccccc34)ccc2N2CCOCC2)cc1	i
O=C(c1ccc(Br)s1)N1CCc2ccccc21	i
S=C(NCCCN1CCOCC1)Nc1cccc(Cl)c1	i
COCc1[nH]nc2c1C(c1ccc(OCCN3CCOCC3)c(OC)c1)C(C#N)=C(N)O2 (centres undefined)	i
CS(=O)(=O)N(CC(=O)Nc1ccccc1Sc1ccccc1)c1ccc(Cl)c(Cl)c1	8%
Nc1nnc(CSCc2cccc(Br)c2)s1	2%
O=C(CSc1nc2ccccc2s1)C1CC1	i
COc1ccc(N2C(=O)CC(N3CCC(n4c(=O)[nH]c5ccccc54)CC3)C2=O)cc1 (centres undefined)	i
Cc1cccc(OCC(=O)NCCc2ccccc2)c1C	i
CC1CN(CC(O)COc2ccccc2F)CC(C)O1 (centres undefined)	i
Cc1ccc(OCC(=O)NC(=S)Nc2cc(C(=O)O)ccc2C)cc1	2%
COC(=O)c1sc(NC(=O)c2csc(C)c2)c(C#N)c1C	i
O=C(NC(c1ccccc1)c1ccccc1)C(F)(F)F	0%
CCn1c(SCC(=O)Nc2ccc(Br)cc2C(C)C)nnc1-c1ccc(OC)cc1	i
CSc1ccc(CN2CCN(C(=O)c3ccccc3)CC2)cc1	2%
O=C(c1cccs1)N1N=C(c2ccc(Br)cc2)CC1c1ccco1 (centres undefined)	1%
COCC(O)CN1CCN(C2=NS(=O)(=O)c3ccccc32)CC1 (centres undefined)	i
O=C(Nc1ccccc1C(=O)Nc1cccc(C(F)(F)F)c1)c1ccc(Cl)cc1Cl	i
COC(=O)c1ccc(NC(=O)Cn2nnc(-c3ccc(C)cc3)n2)cc1	i
CN(C)c1nc(SCC(N)=O)nc(N(C)C)n1	i
NS(=O)(=O)c1ccc2c(c1)C1C=CCC1C(c1ccc(Cl)cc1Cl)N2 (centres undefined)	7%
Cc1ccc2nsnc2c1S(=O)(=O)N1CCN(c2ccc(F)cc2)CC1	i
Cc1nc2ccc(NC(=O)NCc3ccco3)cc2s1	i
O=C(CC(=O)c1ccc([N+](=O)[O-])cc1)c1ccccc1	u
CCOc1ccccc1C1C(C#N)=C(SCC(=O)Nc2ccccc2C)NC(C)=C1C(=O)OC (centres undefined)	i
Cc1cc(C)cc(N(CC(=O)Nc2ccccc2-c2ccccc2)S(=O)(=O)c2ccccc2)c1	i
O=C(CNC(=O)C1CCCCC1)Nc1ccc(Cl)c(Cl)c1	i
CCC(=O)Oc1c(OC)cc(C=O)cc1OC	4%
O=c1c2cccc3cccc(c32)c2nc3ccc(Cl)cc3n12	1%
COc1cc([N+](=O)[O-])c(Cl)cc1-c1ccc(/C=c2\sc3nc4c(C)c(C)ccc4n3c2=O)o1	i
COc1ccc(OC)c(NC(=O)c2cc3cccc(OC)c3oc2=O)c1	i
O=C(Nc1ccc(S(=O)(=O)Nc2nccs2)cc1)c1cc2c(s1)CCCC2	12%
C#CC(CC)(CC)NC(=S)Nc1ccc(C(=O)OCC)cc1	i
